# Screens deposited in PubChem by Broad Institute.
# MLL AF4-AF9 inh: inhibitors of human MLL-AF4/AF9 interaction; AlphaScreen, biotin-AF4 peptide binding to FLAG-AF9; inhibition, % at 10 µM; 350,000 tested, 0.47% active; AID 651704;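 active means every replicate reaching a set inhibition limit, whatever the replicate mean, cut at about 25% in these data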;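 further: 0% = plate neutral control median and 100% = total signal loss; the record names both 10 and 1 µM as test concentration; the first replicate is given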
# Target sequence (P42568 whole entry, looked up): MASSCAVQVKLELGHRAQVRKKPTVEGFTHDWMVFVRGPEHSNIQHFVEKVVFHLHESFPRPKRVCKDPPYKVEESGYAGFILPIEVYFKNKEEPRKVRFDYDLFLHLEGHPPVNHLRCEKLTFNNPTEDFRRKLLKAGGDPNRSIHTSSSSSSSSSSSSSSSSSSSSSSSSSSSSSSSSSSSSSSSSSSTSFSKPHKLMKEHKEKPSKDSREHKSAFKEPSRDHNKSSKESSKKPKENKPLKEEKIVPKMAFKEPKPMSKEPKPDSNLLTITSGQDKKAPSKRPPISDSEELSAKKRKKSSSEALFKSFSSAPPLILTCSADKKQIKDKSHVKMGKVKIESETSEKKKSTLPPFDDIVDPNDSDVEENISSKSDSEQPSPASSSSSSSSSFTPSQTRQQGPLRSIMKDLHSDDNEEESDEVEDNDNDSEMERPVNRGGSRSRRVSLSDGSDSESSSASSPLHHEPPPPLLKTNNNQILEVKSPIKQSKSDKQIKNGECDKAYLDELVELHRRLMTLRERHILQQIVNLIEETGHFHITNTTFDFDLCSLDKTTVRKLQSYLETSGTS
# An asterisk follows results filed as active; & = joins results of further samples. Only part of the results is shown, so the mix of outcomes need not match the whole.
# Start of the data: the first 3 entries as a preview:
SMILES	MLL AF4-AF9 inh
Cc1cccc(NS(=O)(=O)c2ccc(C)c(C(=O)N3CCN(C(=O)c4ccco4)CC3)c2)c1	-24
C[C@H]1CCCCO[C@@H](CN(C)S(=O)(=O)c2ccc(Cl)cc2)[C@@H](C)CN([C@@H](C)CO)C(=O)c2cc(NS(=O)(=O)c3ccc(F)cc3)ccc2O1	-7.0
C[C@H](NC(=O)[C@H]1[C@H](CO)[C@H]2Cn3c(ccc(C4=CCCCC4)c3=O)[C@@H]1N2)c1ccccc1	0.6

# The whole of this part, repeating the preview:
SMILES	MLL AF4-AF9 inh
Cc1cccc(NS(=O)(=O)c2ccc(C)c(C(=O)N3CCN(C(=O)c4ccco4)CC3)c2)c1	-24
C[C@H]1CCCCO[C@@H](CN(C)S(=O)(=O)c2ccc(Cl)cc2)[C@@H](C)CN([C@@H](C)CO)C(=O)c2cc(NS(=O)(=O)c3ccc(F)cc3)ccc2O1	-7.0
C[C@H](NC(=O)[C@H]1[C@H](CO)[C@H]2Cn3c(ccc(C4=CCCCC4)c3=O)[C@@H]1N2)c1ccccc1	0.6
CNC[C@H]1Oc2ccc(NC(=O)NC3CCCCC3)cc2CC(=O)N([C@H](C)CO)C[C@H]1C	-3.1
C/C=C/c1ccc([C@H]2[C@@H](CO)N(Cc3ccccn3)[C@@H]2CNC(C)=O)cc1	0.4
C[C@H]1CN([C@@H](C)CO)C(=O)Cc2cc(NC(=O)CCCCCC(=O)Nc3ccccc3N)ccc2O[C@H]1CN(C)Cc1ccc2c(c1)OCO2	-3.4
C[C@@H]1CN([C@H](C)CO)C(=O)c2cc(NC(=O)Nc3ccc(C(F)(F)F)cc3)ccc2O[C@@H]1CN(C)C(=O)Nc1ccc(C(F)(F)F)cc1	1.2
CO[C@H]1CN(C)C(=O)c2cc(NC(=O)Cc3ccccc3)ccc2OC[C@@H](C)N(CC2CC2)C[C@@H]1C	3.3
C[C@@H]1CN([C@@H](C)CO)C(=O)Cc2cc(NC(=O)C3CCCCC3)ccc2O[C@H]1CN(C)C(=O)Nc1ccc(F)cc1	7.2
C[C@@H]1CN([C@@H](C)CO)S(=O)(=O)c2ccc(C#Cc3ccccc3)cc2O[C@H]1CN(C)C(=O)c1ccccn1	0.3

# Overlap with the part before: three entries; new compounds follow.
SMILES	MLL AF4-AF9 inh
CO[C@H]1CN(C)C(=O)c2cc(NC(=O)Cc3ccccc3)ccc2OC[C@@H](C)N(CC2CC2)C[C@@H]1C	3.3
C[C@@H]1CN([C@@H](C)CO)C(=O)Cc2cc(NC(=O)C3CCCCC3)ccc2O[C@H]1CN(C)C(=O)Nc1ccc(F)cc1	7.2
C[C@@H]1CN([C@@H](C)CO)S(=O)(=O)c2ccc(C#Cc3ccccc3)cc2O[C@H]1CN(C)C(=O)c1ccccn1	0.3
CCCC#Cc1ccc2c(c1)O[C@H](CN(C)Cc1ccccn1)[C@H](C)CN([C@H](C)CO)S2(=O)=O	0.2
COCC(=O)N(C[C@@H]1[C@@H](c2ccccc2)[C@@H](CO)N1C(=O)NC(C)C)C(C)C	-4.7
COc1cccc(-c2cnc3c(c2)C(=O)N([C@H](C)CO)C[C@H](C)[C@@H](CN(C)Cc2ccc(F)cc2)O3)c1	7.7
CNC[C@H]1OCCCC[C@@H](C)Oc2ccc(NC(=O)Nc3ccc(OC)cc3)cc2C(=O)N([C@@H](C)CO)C[C@H]1C	3.3
COCC(=O)Nc1ccc2c(c1)[C@@H]1C[C@@H](CC(=O)NCc3ccccc3OC)O[C@H](CO)[C@@H]1O2	0.1
CCCN1[C@H](C(=O)NCCCN2CCOCC2)[C@@H](CO)[C@@H]2Cn3c(ccc(-c4cccnc4)c3=O)[C@@H]21	3.7
O=C(C[C@@H]1C[C@H]2c3cc(NC(=O)NC4CCCC4)ccc3O[C@H]2[C@@H](CO)O1)NCc1ccncc1	-4.0
COC(=O)[C@]12C[C@H](CC(=O)NCc3cccc(C(F)(F)F)c3)C(=O)N(CCc3ccc(OC)c(OC)c3)C1=C[C@H](C(C)(C)C)O[C@@H]2C	4.9
CCC(=O)N(C)C[C@H]1Oc2cc(C#CC(C)(C)O)ccc2S(=O)(=O)N([C@@H](C)CO)C[C@H]1C	-3.7
CCCC#Cc1ccc2c(c1)O[C@@H](CN(C)C)[C@H](C)CN([C@H](C)CO)S2(=O)=O	1.2

# Other structures
SMILES	MLL AF4-AF9 inh
CN(C)CC(=O)Nc1ccc2c(c1)[C@H]1C[C@H](CC(=O)N3CCc4ccccc4C3)O[C@H](CO)[C@H]1O2	0.7
COc1cccc(-c2ccc([C@@H]3[C@@H](CO)N4CCCCN(C(=O)c5ccc6c(c5)OCO6)C[C@H]34)cc2)c1	4.7
CO[C@H]1CC[C@@H]2CCN(C)C(=O)[C@H](C)[C@H](OC)CN(C)C(=O)c3cc(C#N)ccc3OC[C@H]1O2	-7.9
COc1ccc(NC(=O)N2CCCCN3[C@H](CO)[C@@H](c4ccc(C#Cc5ccccn5)cc4)[C@@H]3C2)cc1	-1.0
CCC(=O)N(C)C[C@H]1Oc2cc(C#CC(C)(C)O)ccc2S(=O)(=O)N([C@@H](C)CO)C[C@@H]1C	4.3
O=C(NCC[C@@H]1CC[C@H](NS(=O)(=O)c2cccc(F)c2)[C@H](CO)O1)C1CCCC1	3.8
C#CCN(C[C@H]1[C@H](OC(=O)NCc2ccco2)[C@H](OC(=O)NCc2ccco2)C[C@@H](C(=O)OC)[C@H]1C(=O)OC)S(=O)(=O)c1ccc(C)cc1	-2.2
O=C(C[C@H]1CC[C@@H](NC(=O)NC2CCCCC2)[C@H](CO)O1)NCc1ccccc1	-1.7
COc1cccc(-c2cnc3c(NC=O)cc(-c4ccncc4)cn23)c1	-7.7
COC(=O)[C@@]12C[C@@H](CC(=O)N3CCOCC3)C(=O)N(CCc3ccc(OC)c(OC)c3)C1=CCC(C)(C)C2	-0.9

# Further results
SMILES	MLL AF4-AF9 inh
C[C@H]1CN([C@@H](C)CO)C(=O)c2cc(C#Cc3ccccc3F)cnc2O[C@H]1CN(C)C(=O)C1CCC1	-1.2
Cc1cccc(C(=O)N2CCC(=O)N([C@H](COCc3ccc(Cl)cc3)Cc3ccccc3)CC2)c1	-1.7
COc1ccc(NC(=O)N(C)C[C@H]2Oc3ccc(NC(=O)CCC(F)(F)F)cc3CC(=O)N([C@@H](C)CO)C[C@@H]2C)cc1	-1.5
O=C(C[C@@H]1C[C@H]2c3cc(NC(=O)NC4CCCCC4)ccc3O[C@H]2[C@H](CO)O1)NCC(F)(F)F	0.4
CO[C@@H]1CN(C)C(=O)c2ccc(NC(=O)C3CCCC3)cc2OC[C@H](C)N(C(C)=O)C[C@H]1C	-0.5
C[C@@H]1CN([C@@H](C)CO)C(=O)c2cc(C#CC3(O)CCCC3)cnc2O[C@H]1CN(C)S(=O)(=O)c1cccc(F)c1	-10
O=C(Nc1ccccc1Cl)c1cc(C2CCCN(C(=O)CCCc3ccccc3)C2)on1 (stereo not given)	-2.0
C[C@H]1CN([C@@H](C)CO)S(=O)(=O)c2ccc(C#CC3CC3)cc2O[C@H]1CN(C)Cc1cccnc1	9.0
COc1cc(CNc2ncnc3c2ncn3[C@H]2CN(Cc3cccc4ccccc34)C[C@@H](CO)O2)cc(OC)c1OC	-0.4
C[C@@H]1CN([C@@H](C)CO)C(=O)Cc2cc(NS(=O)(=O)c3cn(C)cn3)ccc2O[C@@H]1CN(C)C(=O)Nc1ccc(C(F)(F)F)cc1	-4.8

# The list goes on:
SMILES	MLL AF4-AF9 inh
CN(C)CC(=O)N[C@@H]1CC[C@H](CCn2cc(C3CCCC3)nn2)O[C@H]1CO	-1.6
C[C@H]1CN([C@@H](C)CO)C(=O)c2cc(-c3cccc(F)c3)cnc2O[C@H]1CN(C)S(=O)(=O)c1cccc(F)c1	-13
CCc1nc2ccc(C(=O)Nc3cccc(NS(C)(=O)=O)c3)cn2c1N(CC)Cc1cccc(Br)c1	1.3
O=C(C[C@H]1CC[C@@H](NC(=O)c2ccc(F)cc2)[C@@H](CO)O1)NCc1ccncn1	3.5
CC1=C(C(=O)N(C(C)C)C(C)C)CC(CC(=O)NCc2cccs2)C(=O)N1Cc1ccc(C(C)(C)C)cc1 (stereo not given)	1.9
C[C@H](CO)N1C[C@H](C)[C@H](CN(C)C(=O)Nc2ccc3c(c2)OCO3)OCCCC[C@H](C)Oc2ccc(NC(=O)c3ccccc3)cc2C1=O	-0.2
CO[C@H]1CN(C)C(=O)c2ccc(NC(=O)C3CCCCC3)cc2OC[C@@H](C)N(C)C[C@H]1C	0.3
CN1c2ccc(-c3ccc(F)cc3)cc2[C@H]2[C@H](CCN2S(=O)(=O)c2cccc(F)c2)[C@@H]1CO	1.8
COC(=O)[C@H]1[C@H](CO)[C@H]2Cn3c(ccc(C4=CCCC4)c3=O)[C@H]2N1C(=O)Cc1cccnc1	-7.3
O=C(C[C@@H]1CC[C@H]2[C@@H](COC[C@@H](O)CN2Cc2cccc(Cl)c2)O1)NCc1cccc(F)c1	-1.6

# Following part
SMILES	MLL AF4-AF9 inh
CCC(=O)N1C[C@@H](O)COC[C@@H]2O[C@H](CC(=O)NC)CC[C@H]21	3.1
CN(C)C(=O)c1ccc(-c2ccc3c(c2)[C@@H]2[C@@H](CCN2S(=O)(=O)c2cn(C)cn2)[C@H](CO)N3)cc1	1.0
Cc1cccc(C)c1NC(=O)C(c1ccccc1)N1CCN(C)CC1 (stereo not given)	-1.7
C[C@H](CO)N1C[C@H](C)[C@H](CN(C)C(=O)C2CCCCC2)OCc2cnnn2CCCC1=O	-1.5&-0.9&-1.1
CO[C@@H]1CN(C)C(=O)c2cc(NC(=O)C3CCOCC3)ccc2OC[C@@H](C)N(Cc2nccs2)C[C@H]1C	-1.9
CCOC(=O)C1CCCN(C(=O)c2cc(C(C)(C)C)nn2C)CC1 (stereo not given)	0.4
CC1(c2nnnn2Cc2ccccc2)CCC(=O)N1Cc1cccs1 (stereo not given)	-3.7
CCCCN(C)C(=O)c1[nH]c(C(F)(F)F)nc1-c1ccccc1	-2.8
COc1ccc(CN(C)C[C@H]2OCCCC[C@H](C)Oc3ccc(NC(=O)Nc4ccc(F)cc4)cc3C(=O)N([C@H](C)CO)C[C@H]2C)cc1	12
COC(=O)C[C@H]1CC[C@H]2[C@@H](COc3ccc(NC(=O)c4ccc(F)c(F)c4)cc3C(=O)N2C)O1	-1.8

# The list continues:
SMILES	MLL AF4-AF9 inh
N[C@@H]1CC[C@H](CCn2cc(-c3ccccn3)nn2)O[C@H]1CO	-1.2
N#C[C@H]1[C@H](c2ccc(-c3cccc(F)c3)cc2)[C@H](CO)N1C(=O)CN1CCOCC1	-0.5
C[C@H](O)C#Cc1ccc2c(c1)O[C@H](CN(C)C(=O)C1CC1)[C@@H](C)CN([C@H](C)CO)S2(=O)=O	-6.2
Cn1ccc2c(N3CCOCC3)cc3c(c21)C1CCC3C1 (stereo not given)	26*
C[C@H](CO)N1C[C@H](C)[C@@H](CN(C)S(=O)(=O)c2ccccc2)Oc2c(NC(=O)c3ccc(-c4nccs4)cc3)cccc2C1=O	2.2
Cc1ccccc1S(=O)(=O)N1CC[C@@H]2[C@@H](CO)Nc3ccc(-c4cccc(F)c4)cc3[C@@H]21	7.1
O=C(CN1CCOCC1)N[C@H]1CC[C@@H](CCNC(=O)C2CCCC2)O[C@@H]1CO	1.7
Cc1ccc(S(=O)(=O)N2CCC(=O)N([C@H](COCc3ccc(Cl)c(Cl)c3)Cc3ccccc3)CC2)cc1	-0.2
CO[C@H]1CN(C)C(=O)c2cc(NC(=O)C3CCC3)ccc2OC[C@@H](C)N(C)C[C@H]1C	-1.7
C[C@H]1CN([C@@H](C)CO)C(=O)c2c(c3ccccc3n2C)-c2ccccc2CO[C@@H]1CN(C)C(=O)c1cc(Cl)cc(Cl)c1	7.1

# New compounds follow:
SMILES	MLL AF4-AF9 inh
CCC(=O)N1CC2(C1)[C@H](c1ccc(-c3ccccc3)cc1)[C@@H](CO)N2S(C)(=O)=O	-1.7
N#C[C@H]1[C@@H](c2ccc(C#Cc3ccc(F)cc3)cc2)[C@H](CO)N1C(=O)C1CCCC1	-3.5
CC(C)C[C@@H](CN1CCC[C@H]1CN1C(=O)C(=O)NC[C@@H]1Cc1ccc(O)cc1)N1C[C@H](Cc2ccccc2)N(CC2CCCCCC2)C(=O)C1=O	-2.6
COc1ccc(S(=O)(=O)N[C@@H]2CC[C@@H](CCn3cc(-c4ccccc4F)nn3)O[C@H]2CO)cc1	2.5
O=C(C1CCCC1)N1CC2(C1)[C@H](c1ccccc1)[C@@H](CO)N2CC1CCCC1	-2.2
COc1ccc(NC(=O)N(C)C[C@H]2Oc3ccc(NS(=O)(=O)c4c(C)noc4C)cc3C(=O)N([C@H](C)CO)C[C@H]2C)cc1	-2.1
CC1(C(=O)NC2CCN(Cc3ccccc3)CC2)CCN1CCc1ccccc1 (stereo not given)	-0.3
C[C@H](CO)N1C[C@H](C)[C@H](CN(C)S(=O)(=O)c2ccccc2)OCCCC[C@H](C)Oc2ccc(NC(=O)C3CCCCC3)cc2C1=O	0.7
COc1ccc(NC(=O)N(C)C[C@@H]2Oc3ccc(NS(=O)(=O)c4ccc(Cl)cc4)cc3CC(=O)N([C@@H](C)CO)C[C@@H]2C)cc1	-0.4
C[C@H]1CN([C@@H](C)CO)C(=O)c2cc(C#CC3CCCC3)cnc2O[C@@H]1CN(C)C(=O)C1CCCCC1	1.3

# Remaining list, next part:
SMILES	MLL AF4-AF9 inh
COc1ccc(NC(=O)N(C)C[C@@H]2Oc3ccc(NC(=O)Cc4ccccc4)cc3C(=O)N([C@H](C)CO)C[C@H]2C)cc1	-5.6
CCCNC(=O)Nc1ccc2c(c1)OC[C@H](C)N(CCC)C[C@H](C)[C@H](OC)CN(C)C2=O	-4.5
CCCc1nc2c(C)cc(Br)cn2c1Cc1ccccc1	-0.5
COC(=O)Cn1c(C(=O)N(C)C)cc2c1C[C@H]1CN(C(=O)c3ccccc3)[C@@](Cc3ccc(F)cc3)(C(=O)OC)[C@@H]21	3.9
CCC(=O)N1[C@@H]2CN(S(=O)(=O)c3ccccc3F)c3ccccc3[C@@H]2[C@@H]1CO	-2.5
